AID504770 – E. coli YBA685 growth inhibition, screen for V. cholerae RctB inhibitors; E. coli YBA685 rctB-dependent plasmid, OD600 growth, 3 h; active compounds read low; z-score (no concentration beside the values); actives 0.27% (n = 130,000); AID 504770;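 active means z-score under -2 on both plates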;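 further: wells of about 30 µL received 100 nL stock; score is relative to mean and SD of the test wells; the first replicate is given; strong numbers were not always called active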
CapD inh – CapD enzyme inhibition. z-score (concentration not given with the values). purified CapD enzyme, fluorescence intensity read-out; active compounds read low; some hits fall short of the stated cut. actives 0.23% (n = 140,000);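 active means z-score under -4 in either of two replicates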;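 further: stock transfer was 100 nL into about 40 µL; score is relative to mean and spread of the plate; one replicate is shown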
Starred values were filed as active, the others as inactive; nt = no result given.

SMILES	AID504770	CapD inh
CC12CCC(O)CC1CCC1C2CCC2(C)C(C(=O)O)CCC12 (stereo unspecified)	1.5	nt
O=c1[nH]c(SCC2CCCCO2)nc2ccccc12 (stereo unspecified)	-0.9	nt
CCCNc1ncnc2c1c(-c1ccccc1)cn2-c1ccc(C)cc1	nt	0.05
Nc1cc(-c2ccccc2)no1	-1.85	nt
COc1cc(CC(=O)O)cc(OC)c1OC	-1.05	nt
N#Cc1c(F)cccc1Oc1ccc(F)cc1	nt	-0.05
CCOC(CCn1c(SC)nc2c(sc3ccccc32)c1=O)OCC	1.7	0.035
COc1ccc(C(C2=C(O)CCCC2=O)c2cc3c(cc2O)OCO3)cc1 (stereo unspecified)	-1.4	0.775
Cn1c2ccccc2c2cnn(CC(=O)N3CCCC3)c(=O)c21	-0.4	0.095
COc1cccc(C(=O)N2N=C(c3cccc(Br)c3)CC2(O)C(F)(F)F)c1 (stereo unspecified)	nt	-0.45
O[C@H]1CC2CCC1N(Cc1ccccc1)C2 (stereo partly specified)	nt	-0.71
O=C(NCC1CCCO1)c1cc(-c2ccccc2)nc2ccccc12 (stereo unspecified)	-1.05	14.4
COc1ccc(OC)c(NC(=O)CN2C(=O)C3(OCCCO3)c3ccccc32)c1	-0.65	-1.61
COc1ccccc1NC(=O)CC(C(=O)O)N(C)C (stereo unspecified)	-0.3	0.065
CCN(CC)c1ccc(NC(C)=O)c(C)c1	-0.75	-0.115
NC(=O)COC(=O)COc1ccc(OCc2ccccc2)cc1	-0.4	nt
CCOc1cc(-c2cccs2)nc(N)n1	-1.05	13.8
O=c1[nH]c2ccccc2n2nnnc12	-0.8	nt
O=C(COc1ccccc1)NCc1cn2ccsc2n1	-0.85	-0.245
CCOC(=O)c1cn(CC(=O)Nc2ccccc2CC)nn1	-0.55	-0.1
CCN(C(=O)c1ccc(C(C)(C)C)cc1)c1ccc(Sc2nc(C)cc(C)n2)cc1	nt	-0.43
Cc1nn(C)c2sc(C(=O)NCc3ccc(N4CCN(C)CC4)cc3)cc12	-0.35	0.115
O=c1[nH]nc(-c2cccs2)c2ccccc12	-1.25	nt
Cc1cc(/C=N/NC(=S)NCC2CCCO2)c(C)n1CC(C)C (stereo unspecified)	-0.65	nt
COC(=O)Cn1c2ccccc2c2nc(C)sc21	0	nt

Other records
SMILES	AID504770	CapD inh
COc1cc2ccc3c(CCN(C)C)cc(OC)c(OC)c3c2cc1OC	-0.25	14.8
O=C(NC1c2ccccc2-c2ccccc21)c1ccco1	-0.85	0.01
CCC(NC(=O)NCc1cccnc1)(C(F)(F)F)C(F)(F)F	-1.1	-0.22
Cc1ccc(C(=O)CC(c2ccccc2)S(=O)(=O)c2ccccc2)cc1 (stereo unspecified)	0.7	0.23
O=C(C=C1SCCS1)c1cccs1	-1.1	-2.15
Cc1cccc(N2CCN(C(=O)C3CCCN(C(=O)c4cc5sccc5n4C)C3)CC2C)c1 (stereo unspecified)	0.15	0.59
CN(C)S(=O)(=O)c1cc(S(=O)(=O)N(C)C)c2cccc3c2c1NC3=O	nt	-0.225
N#Cc1cccc2c(Oc3ccccc3)cc(C(F)(F)F)nc12	0.95	0.96
CCOc1ccccc1C(=O)Nc1nc2ccc(S(C)(=O)=O)cc2s1	0.6	19.1
CC1CCCCN1CCNC(=O)Cn1nc(-c2ccccc2)ccc1=O (stereo unspecified)	0.05	1.6
CCOC(=O)c1c(-c2cccs2)csc1NC=O	-0.65	6.3
CCNc1nc(NCC)nc(N(n2cnnc2)S(=O)(=O)c2ccc(C)cc2)n1	2.65	nt
Cc1cccc(NS(=O)(=O)c2ccc3c(c2)CC(=O)N3)c1	-0.65	0.635
Cc1cccc2c1-c1sc(C(=O)NCCN3CCN(c4cccc(Cl)c4)CC3)cc1CO2	0.2	5.02
O=C1CCCCC1Sc1ncnc2sccc12 (stereo unspecified)	-0.1	nt
CNS(=O)(=O)c1ccc(NC(=S)Nc2ccc3c(c2)OCO3)cc1	1.35	-0.745
O=C1NC2=C(C(=O)NN(c3ccccc3)C2)C(c2ccccc2)N1 (stereo unspecified)	-0.85	-0.335
COc1ccc(C(O)c2nc3ccccc3n2C(C)C)cc1 (stereo unspecified)	-0.6	-1.22
CCCCC1=NN(C(=O)C(C)C)C(O)(C(F)(F)C(F)(F)C(F)(F)F)C1 (stereo unspecified)	nt	-0.455
CN1CC2(C)OC(=O)C(Cl)=C2CC1c1ccccc1 (stereo unspecified)	nt	6.88
O=S(=O)(c1ccccc1)N1N=C(c2ccccc2)CC1c1ccccc1Cl (stereo unspecified)	nt	-0.385
NC(=O)NC1C(=O)c2ccccc2OC1c1ccccc1 (stereo unspecified)	-0.7	4.07
O=C(CCC1COc2ccccc2O1)Nc1ccc(C(=O)O)cc1 (stereo unspecified)	-0.8	-0.43
COc1ccc(O)c(C=Nc2cc(C(F)(F)F)ccc2Oc2ccccc2)c1	-0.25	-0.795
CC(C)CCn1c(O)c(N=NC(=O)Cn2ccc(C(F)(F)F)n2)c2ccccc21	0.25	nt

(listing goes on)
SMILES	AID504770	CapD inh
CCCn1c(N2CCN(CC(=O)NCc3cccs3)CC2)nc2ccccc21	-1.15	nt
COc1ccc(-c2ccc(C3Nc4ccc5ccccc5c4C4=C3C(=O)CC(C)(C)C4)o2)cc1Cl (stereo unspecified)	nt	0.03
Cc1nnc(NC(=O)CSc2nnc(CNC(=O)c3ccc(S(=O)(=O)N(C)C)cc3)n2-c2ccc(F)cc2)s1	nt	0.085
CC(CC(=O)Nc1ccccc1)c1ccccc1 (stereo unspecified)	0.6	nt
O=C(Nc1nncs1)c1ccncc1	nt	-1.01
Cc1ccc(-c2nc3s/c(=C\c4ccco4)c(=O)n3n2)cc1	nt	-0.665
CCCCn1c(=O)n(C)c(=O)c2c1nnn2CC(=O)N1CCCc2ccccc21	0.4	nt
COc1ccc(NC(=O)c2ccc(-n3cccn3)c([N+](=O)[O-])c2)cc1OC	nt	-1.03
O=S(=O)(NCc1ccc2[nH]c3c(c2c1)CCCC3)c1ccccc1	-0.1	0.65
CCn1c(=O)n(CC(=O)Nc2cc(Cl)c(OC)cc2OC)c(=O)c2ccccc21	nt	-0.195
COc1ccc(CNC(=O)C(C)n2nnc(-c3ccc(OC)c(OC)c3)n2)cc1 (stereo unspecified)	-0.25	nt
Cc1ccc(N2C(=O)CC(Sc3nc(C)cc(C)c3C#N)C2=O)cc1 (stereo unspecified)	nt	-0.305
C1CCC(Nc2nc3nonc3nc2NC2CCCCC2)CC1	nt	1.13
O=C1OC(c2ccccc2)=C/C1=C/N1CCOCC1	-0.65	nt
O=C(CNCc1ccccc1Cl)CSc1nc2[nH]ncc2c(=O)n1-c1cccc(C(F)(F)F)c1	nt	0.315
O=C1C2CCCN2C(=S)N1C1CCCCC1 (stereo unspecified)	1.2	nt
CN(C)C=NC1=C(c2ccccc2)C(=O)c2ccccc21	0.05	-1.06
CCC1CCCCN1C(=O)c1cc2ncc(Br)cn2n1 (stereo unspecified)	0.15	0.025
COC(=O)CSC1=C(C#N)C(c2ccc(Cl)cc2)C(C(=O)OC(C)(C)C)=C(C)N1 (stereo unspecified)	nt	0.215
O=C(O)CNCC1COc2ccccc2O1 (stereo unspecified)	-0.35	nt
CC(C)c1nc2sc3c(NCC4CCCO4)ncnc3c2c2c1CCCC2 (stereo unspecified)	-0.1	-0.875
CCOc1ccc(-c2cc(NC(=O)c3noc4c3CCCCC4)on2)cc1OCC	-0.75	-0.195
C=CCn1c(=S)sc2c(=O)[nH]c(C)nc21	-1.35	-5.7*
CC(C)(C)NC(=O)Cn1c(=O)n(CC(=O)NC(C)(C)C)c2ccccc21	1.95	0.155
CSCc1c(C(=O)Nc2ccc(NC(C)=O)cc2)oc2ccccc12	-0.5	nt

(continued)
SMILES	AID504770	CapD inh
COc1ccc(CCNC(=O)c2ccc3c(=O)n(CCc4ccccc4)c(=S)[nH]c3c2)cc1OC	nt	0.205
CC(=O)Nc1ccc(Nc2ncnc3ccc(Br)cc23)cc1	-0.65	0.435
COc1cccc(NC(=O)c2c(Cl)nc3sccn23)c1	0.85	-0.305
COc1ccc(CC2NCCc3cc(OC)c(OC)cc32)cc1OC (stereo unspecified)	-0.6	0.05
N#CCSc1nc2c(sc3ccccc32)c(=O)n1CCCN1CCOCC1	-0.2	-2.62
Cc1cccc(OCCOc2ccc(Br)cc2/C=C2\SC(=S)NC2=O)c1	-0.85	-0.815
O=C(NC1CCN(Cc2ccccc2)CC1)c1cn(-c2ccccc2)nc1-c1cccs1	0.1	nt
N#CC1=C(N)SC(N)=C(C#N)C1c1cccc(C(F)(F)F)c1	-1.3	4.82
C/C(N)=C(/C#N)C(=O)CSc1nnc(COc2cc(C)ccc2C)o1	1.25	nt
CC(=O)Nc1ccccc1C(=O)N1CC2(C)CC1CC(C)(C)C2 (stereo unspecified)	-0.2	nt
COC(=O)C1CCN(C(=O)c2sc3ccccc3c2Cl)CC1	1.45	-0.075
O=c1c(/C=N/O)coc2ccccc12	-1.3	nt
O=S1(=O)CCC(SCc2nnc(-c3ccccc3)o2)C1 (stereo unspecified)	-0.95	nt
Cc1onc(-c2c(Cl)cccc2Cl)c1NC(=O)O/N=C/c1ccccn1	nt	-0.3
COc1ccc(C2C3(C#N)C(N)=NC4(OCCO4)C23C#N)cc1 (stereo unspecified)	-0.55	0.485
Oc1cccnc1NC(c1ccc(F)cc1)c1ccc2cccnc2c1O (stereo unspecified)	2.7	nt
O=C(CN1C(=O)c2ccccc2C1=O)Nc1nccs1	-1.15	-0.765
CN1N=C(c2cccs2)CSC1=NCc1ccccc1	-0.25	nt
Cc1ccc(C(=O)N2N=C3c4ccccc4S(=O)(=O)N3C2N2CCCCC2)cc1 (stereo unspecified)	-0.5	0.19
CC(C(=O)N1c2ccc(F)cc2CCC1C)N1C(=O)c2ccccc2C1=O (stereo unspecified)	-0.6	-0.035
COc1ccc(N2CCN(C(=O)CN=C3NS(=O)(=O)C(c4ccc(C)cc4)=C3C)CC2)cc1	-1	-0.875
CC(=O)Oc1cc(C)c(OC(C)=O)c(C)c1C	2.15	-0.01
COc1ccc2c(c1)C(=O)CC(c1ccc(OC)c(OC)c1)O2 (stereo unspecified)	-0.1	0.585
CC(C(=O)NCc1ccc2c(c1)OCO2)N1CCN(c2ccc(O)cc2)CC1 (stereo unspecified)	1.1	nt
Cc1ccc(OCc2nn(CN3CCC4(CC3)OCCO4)c(=S)n2C)cc1C	0.3	0.785

Going on with the list:
SMILES	AID504770	CapD inh
COC(=O)CSc1nc2ccccc2c(=O)n1-c1ccccc1	-0.4	0.305
CC(CN1CCCC1)OC(=O)c1ccccc1Cl (stereo unspecified)	-0.5	0.035
CCN(C(=O)CSc1nc2n[nH]c(C)c2c(=N)n1-c1ccc(Cl)c(C)c1)c1cccc(C)c1	nt	0.34
CCN1C(=O)CC(Sc2ccccc2N)C1=O (stereo unspecified)	0.65	-0.525
CCC(Oc1ccccc1)c1nc(-c2ccc(OC)c(OC)c2)no1 (stereo unspecified)	4.95	-0.08
O=c1[nH]c(=O)n(Cc2ccco2)c2c1C(C(F)(F)F)(C(F)(F)F)N=C(CCC1CCCCC1)N2	-0.5	-0.23
COc1ccc(OC)c(N(CC(=O)Nc2cccc(Cl)c2)S(=O)(=O)c2ccc(OC)c(OC)c2)c1	nt	0.775
CCn1c2ccccc2c2nc3cc(C(=O)O)ccc3nc21	0.65	nt
CCCN(CCC)c1ccc(/C=N/n2cnnc2)cc1	0	24.9
O=C(O)CCC(=O)Nc1ccc(Cc2ccncc2)cc1	0.4	0.3
Cc1c(C#N)c(N)nc(SCC(=O)c2ccc(Cl)cc2)c1C#N	-0.3	nt
O=C(CNC(=O)c1ccco1)OCc1ccc(Cl)cc1	-0.15	-0.115
CC1=C(C(=O)Nc2cccc(C(F)(F)F)c2)C(c2ccc3c(c2)OCO3)C2=C(CCCC2=O)N1 (stereo unspecified)	nt	16.2
Cn1c(C2CC(=O)N(Cc3cccs3)C2)nc2ccccc21 (stereo unspecified)	-1.35	0.205
CCOC(=O)N1CCC(NC(=O)c2ccc3c(c2)C(=O)N(C2CCN(C(=O)OCC)CC2)C3=O)CC1	-0.2	-0.24
CC(=O)n1c(=O)c2ccccc2c(=O)n1-c1ccccc1	0.9	-4.74*
COCC(=O)Nc1cccc(NC(C)=O)c1	-1.05	6.4
C#CCn1c(=NC(=O)C2COc3ccccc3O2)sc2cccc(OC)c21 (stereo unspecified)	-0.45	nt

Compounds as they come. Share with any hit: about 0.39%.
